Assay outcomes (PubChem BioAssay)
FGF22 binding: FGF22 (human) thermal shift binding; Q9HCT0; recombinant FGF22 thermal shift, SYPRO orange fluorescence; percent of sucrose octasulfate shift, DMSO zero; calls only at 9.99 µM; 1.5% of 340,000 active; AID 651658;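 active means melting point raised past a set limit in the mean and every replicate; three in four hits are not shown here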
Target sequence (Q9HCT0 whole entry, looked up): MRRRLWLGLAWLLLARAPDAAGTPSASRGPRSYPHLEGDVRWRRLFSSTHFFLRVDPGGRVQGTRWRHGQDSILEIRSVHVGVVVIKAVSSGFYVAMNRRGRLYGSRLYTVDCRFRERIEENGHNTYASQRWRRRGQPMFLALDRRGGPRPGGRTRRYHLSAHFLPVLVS
HNF4A DNA FP: change in binding of human HNF4 alpha to DNA; HNF4a-FITC DNA binding, fluorescence polarization, 1 h; P41235; 0.3% of 360,000 active; activity change, % at 10 µM; in the data active means activity change above about 30%, passing the limit was not always enough;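 further: controls were the assay level and a saturating level of protein; the project sought stronger binding though the title names inhibitors; some compounds called inactive have numbers as strong as hits; positive values seem to mean higher polarization but the record does not say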
Target sequence (P41235 whole entry, looked up): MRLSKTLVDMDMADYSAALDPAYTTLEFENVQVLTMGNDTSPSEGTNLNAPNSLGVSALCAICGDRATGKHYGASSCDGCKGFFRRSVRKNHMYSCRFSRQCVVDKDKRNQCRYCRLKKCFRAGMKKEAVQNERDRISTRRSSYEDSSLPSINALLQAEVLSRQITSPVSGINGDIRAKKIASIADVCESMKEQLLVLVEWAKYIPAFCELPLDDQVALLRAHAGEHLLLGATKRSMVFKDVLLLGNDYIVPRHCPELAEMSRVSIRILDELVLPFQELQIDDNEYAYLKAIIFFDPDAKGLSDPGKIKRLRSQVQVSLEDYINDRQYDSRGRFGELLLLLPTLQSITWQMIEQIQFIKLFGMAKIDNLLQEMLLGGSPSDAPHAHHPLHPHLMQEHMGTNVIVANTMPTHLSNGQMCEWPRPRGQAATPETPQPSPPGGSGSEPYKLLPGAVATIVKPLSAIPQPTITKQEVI
Active calls of the source: *; i = inactive; . = no result given.

Structure,FGF22 binding,HNF4A DNA FP
CC(C)NC(=O)C1(C)CSCC(=O)N1Cc1cccs1 (stereo unspecified),i,-0.5
COCCN1C(=O)CN(S(C)(=O)=O)CC1(C)C(=O)Nc1c(C)cccc1C (stereo unspecified),i,1.6
COc1ccc(CN2CCC2(C)C(=O)NCCc2c[nH]c3ccccc23)c2ccccc12 (stereo unspecified),i,5.2
Cc1ccc(S(=O)(=O)N2CCC(=O)c3ccccc32)cc1,i,-2.3
Cc1ccc2nc3n(c(=O)c2c1)-c1ncccc1C(=O)NC3Cc1ccc(O)cc1 (stereo unspecified),i,-1.4
CSc1ccc(C(O)c2ncc(-c3cccc(OCc4ccccc4)c3)[nH]2)cc1 (stereo unspecified),i,1.0
COc1ccc(CNc2nccn3ccnc23)cc1,i,3.3
NC(Cc1ccc(C(F)(F)F)cc1)c1csc(Nc2ccc(S(N)(=O)=O)cc2)n1 (stereo unspecified),i,2.0
C[C@@H]1CCCCO[C@@H](CN(C)S(=O)(=O)c2cccs2)[C@@H](C)CN([C@H](C)CO)C(=O)c2cc(NS(=O)(=O)c3ccccc3)ccc2O1,i,-1.8
C[C@H](CO)N1C[C@H](C)[C@@H](CN(C)C(=O)c2ccccc2)OCc2cn(nn2)CCCC1=O,i,1.4
O=C(C[C@@H]1CC[C@H](NC(=O)Cc2ccccn2)[C@@H](CO)O1)NCCc1ccccc1,i,4.9
O=C(c1cccc(Cl)c1)N1CCN(c2ccc3c(c2)C2CC3CCN2C(=O)OCc2ccccc2)CC1 (stereo unspecified),i,1.6
Cc1cccc(N2CCN(C(C(=O)NCc3ccccc3)c3ccc(F)cc3)CC2)c1C (stereo unspecified),i,-3.4
C[C@@H]1CN([C@@H](C)CO)C(=O)CCCn2cc(nn2)CO[C@H]1CN(C)S(=O)(=O)c1ccc(Oc2ccccc2)nc1,i,-0.2
CCN(CC)CCCn1c2c(c(SCC(=O)Nc3cc(C)cc(C)c3)nc1=O)CCC2,i,3.9
O=S1(=O)CC(N2CCCC2)CN1Cc1cn(Cc2ccccc2)nn1 (stereo unspecified),i,-3.8
CCN(CC)c1ncnc2c1ncn2[C@H]1CN(Cc2cc(OC)c(OC)c(OC)c2)C[C@@H](CO)O1,i,1.6
Clc1cccc(Cc2c(C3CCCCC3)nc3ccc(Cl)cn23)c1,i,2.5
CC(=O)Nc1cccc(-c2ccnc3c2CC(C)(C(=O)NCc2ccc(N(C)C)cc2)O3)c1 (stereo unspecified),i,-0.7
O=C(NCc1ccco1)c1[nH]c(C(F)(F)F)nc1-c1ccccc1,i,-3.3

Ordered by the number under HNF4A DNA FP (descending): some entries from above
Structure,FGF22 binding,HNF4A DNA FP
COc1ccc(CN2CCC2(C)C(=O)NCCc2c[nH]c3ccccc23)c2ccccc12 (stereo unspecified),i,5.2
Cc1ccc2nc3n(c(=O)c2c1)-c1ncccc1C(=O)NC3Cc1ccc(O)cc1 (stereo unspecified),i,-1.4
O=S1(=O)CC(N2CCCC2)CN1Cc1cn(Cc2ccccc2)nn1 (stereo unspecified),i,-3.8

Returning to the listing, repeating the five entries before the break.
Structure,FGF22 binding,HNF4A DNA FP
O=S1(=O)CC(N2CCCC2)CN1Cc1cn(Cc2ccccc2)nn1 (stereo unspecified),i,-3.8
CCN(CC)c1ncnc2c1ncn2[C@H]1CN(Cc2cc(OC)c(OC)c(OC)c2)C[C@@H](CO)O1,i,1.6
Clc1cccc(Cc2c(C3CCCCC3)nc3ccc(Cl)cn23)c1,i,2.5
CC(=O)Nc1cccc(-c2ccnc3c2CC(C)(C(=O)NCc2ccc(N(C)C)cc2)O3)c1 (stereo unspecified),i,-0.7
O=C(NCc1ccco1)c1[nH]c(C(F)(F)F)nc1-c1ccccc1,i,-3.3
C[C@@H](CO)NC(=O)[C@H]1O[C@@H](n2ccc(=O)[nH]c2=O)[C@H](O)[C@@H]1O,.,5.2
Cc1c(NC(=O)c2nn(C(C)C)c(=O)c3ccccc23)c(=O)n(-c2ccccc2)n1C,i,6.7
CCc1nc2ccc(C(=O)NCCOc3ccc(OC)cc3)cn2c1N(C=O)Cc1ccc(OC)cc1,i,1.0
O=C1[C@H]2[C@@H](c3ccccc3)N[C@]3(CCCN(Cc4ccc(Cl)cc4)C3=O)[C@H]2C(=O)N1Cc1ccccc1,i,-4.4
CCc1nc2c(OCCOc3ccc(F)cc3)cccn2c1N(C=O)Cc1ccccc1,i,-4.9
O=c1c2cc3ccccc3nc2ncn1CCc1ccc(Cl)cc1,i,0.2
O=c1[nH][nH]c2c1[C@@H](c1ccc(F)cc1)O[C@H](CCc1ccccc1)C2,i,-2.2
CC(=O)c1ccc(-c2cnc3c(NC=O)cc(-c4ccccc4Oc4ccccc4)cn23)cc1,i,9.5
CC1(C(=O)Nc2ccc3ccccc3c2)CCC(=O)N1CCCn1ccnc1 (stereo unspecified),i,-0.4
Cc1nc2ccccn2c(=O)c1NC(=O)c1ccco1,i,3.8
COc1ccc(Nc2c(C3CC3)nc3nc(C)cc(C)n23)cc1,i,0.8
COc1ccc(CCNC(=O)c2ccc(CS(=O)(=O)Cc3ccc(C)cc3)o2)cc1OC,i,4.1
COc1cccc(C(C)(O)c2nc(-c3ccc(F)cc3OC)cs2)c1 (stereo unspecified),i,0.5
Cn1nc(C(C)(C)C)cc1N1C(=O)CCC1(C)C(=O)NC1CCCCC1 (stereo unspecified),i,-1.6
C[C@@H]1CN([C@H](C)CO)C(=O)CCCn2nncc2CO[C@H]1CN(C)S(=O)(=O)c1ccc(Oc2ccccc2)nc1,i,-2.0
Cc1cc(C)cc(OCC(=O)NNC(=O)CC(C)c2ccccc2)c1 (stereo unspecified),i,0.0
CC(C)CNC(=O)C1(C)CCCN1C(=O)CSc1ccccc1 (stereo unspecified),i,2.3
Cc1ccc([C@H]2C[C@H](n3cc(C4CC4)nn3)[C@@H](O)CN2Cc2cccs2)cc1,.,1.0
Cn1nc(C(C)(C)C)cc1NC(=O)C1(C)CCN1C(=O)C1(c2ccccc2)CCCC1 (stereo unspecified),i,-4.8
CN1CCN(c2cccc3c2S(=O)(=O)N[C@@H](Cc2ccccc2)CO3)CC1,i,0.8

The results go on:
Structure,FGF22 binding,HNF4A DNA FP
CCCC(=O)N1CCC1(C)C(=O)Nc1cc(-c2ccccc2)nn1C (stereo unspecified),i,0.1
COCOCCn1cc(CN2CCS(=O)(=O)N(Cc3ccc(-c4ccc(OC)cc4)cc3)C(C)C2=O)nn1 (stereo unspecified),i,5.7
CN(C)c1ccc(CC(=O)N2CCCCC2c2cc(C(=O)Nc3ccccc3)no2)cc1 (stereo unspecified),i,0.1
CC(=O)Nc1cccc(C(=O)OCC(=O)NC(=O)NC2CCCC2)c1,i,1.4
N#Cc1ccc(-c2cccc3nccn23)cc1,i,-2.0
COc1ccc(NC(=O)c2cc(-c3ccc(F)cc3OC(C)C)n[nH]2)c(OC)c1,i,-1.6
COc1cccc(-c2cnc(C(O)c3ccc(F)cc3C)[nH]2)c1 (stereo unspecified),i,5.0
c1cc(-c2ccc(N3CCOCC3)cc2)n2cnnc2c1,i,-2.3
CC1(C)Oc2cc3oc(C(=O)O)cc(=O)c3cc2-c2ccccc21,i,2.8
Cc1ccc(S(=O)(=O)NC(=O)C2(C)CCN2C(=O)CCc2ccc(Cl)cc2Cl)cc1 (stereo unspecified),i,1.7
c1coc(-c2cc3nc(NC4CCCCC4)ccn3n2)c1,i,7.2
CSc1cccc(NC(=O)CCCOc2cc(=O)n(C)c3ccccc23)c1,i,1.3
CCOC(=O)C1(C)CCCCN1C(=O)c1cccc(Cl)c1 (stereo unspecified),i,0.8
Nc1c([N+](=O)[O-])cc2c3c(cccc13)CC2,i,0.3
CCOC(=O)C1(C)CCCN(C(=O)c2cccc(Cl)c2)C1 (stereo unspecified),i,-2.0
COc1ccc(OC)c(NC(=O)c2cc(-c3cc(F)ccc3OCC3CCCO3)n[nH]2)c1 (stereo unspecified),i,-0.4
COc1cccc(-c2cnc3c(NC(C)=O)cc(-c4ccsc4)cn23)c1,i,-2.8
COc1cccc(CCOC(=O)c2c(-c3ccsc3)oc3c2C(OC(C)=O)CCC3)c1 (stereo unspecified),i,1.2
OC[C@@H]1CN(Cc2ccccc2)C[C@H](n2cnc3c(Nc4ccccc4)ncnc32)O1,i,0.4
CC(=O)N1C[C@H]2CON(C)[C@H]2C[C@H]1c1ccc(-c2ccccc2)cc1,i,-4.5

(next part)
Structure,FGF22 binding,HNF4A DNA FP
COc1cccc(C(O)c2ncc(-c3ccccc3Cl)[nH]2)c1 (stereo unspecified),i,-1.6
Cc1ccc(S(=O)(=O)N2CCC(C(=O)N3CCN(c4ccccn4)CC3)CC2)cc1C,i,0.2
CCCCCCCCN1C(=O)[C@H](CC(=O)NCC2CCCCC2)C[C@@]2(C(=O)OC)CCCCC=C12,i,-1.1
CCCCCc1c(-c2cccc(Br)c2)ncn1CCc1ccccc1OC,i,0.3
CCCc1nc2c3ccccc3ccn2c1CC1CCCCC1,i,-0.6
O=C(NC1CCCC1)C1c2ccccc2OCC(=O)N1Cc1ccccn1 (stereo unspecified),i,-0.1
COc1ccc2c(Cl)cc(NC(=O)Nc3c(C)cccc3C)nc2c1,i,5.6
C[C@H](O)[C@@H]1C(=O)N2CCc3c([nH]c4ccccc34)[C@@H]2C[C@@H]1N(C)C(=O)Nc1ccccc1,i,-4.1
C=CCN(CC=C)Cc1cc(=O)oc2cc(C)ccc12,i,1.5
C=CCOC(=O)Nc1nc(CCNC(=O)OCc2ccccc2)c(C(=O)OC)s1,i,-4.3
CCN(CC)C(=O)C1=C(C)N(CCC2=CCCCC2)C(=O)C(CC(=O)NCCN2CCOCC2)C1 (stereo unspecified),i,-1.1
CCn1c(=O)c2[nH]c(Cl)nc2n(CC)c1=O,i,-5.7
COc1ccc(NC(=O)CNc2ccc(OC)c(S(=O)(=O)N3CCOCC3)c2)cc1,i,-4.7
CNc1cc(-c2cnn(CC(C)C)c2)ncn1,i,-1.2
N#Cc1ccc(-c2nc3c4ccccc4ccn3c2Cc2ccccc2C(F)(F)F)cc1,i,13
CC(O)(c1ccc(F)c(F)c1)c1nc(/C=C/c2ccc(C(F)(F)F)cc2)cs1 (stereo unspecified),i,-3.8
CN(N=Cc1ccccc1O)c1ccc2ccccc2n1,i,0.9
CN1C(=O)[C@@](O)(c2cn(C)c3ccccc23)c2ccccc21,i,0.5
Cc1nc(-c2cccc(NC(=O)c3ccc(Cl)c(S(=O)(=O)N4CCCC4)c3)c2)cs1,i,-0.7
O=C(NCc1cccc(Cl)c1)C1Cc2c(-c3ccccc3Oc3ccccc3)ccnc2O1 (stereo unspecified),i,2.9

More entries follow:
Structure,FGF22 binding,HNF4A DNA FP
CN(C)C(=O)c1cccc(-c2cnc3c(NC=O)cc(-c4cccc(F)c4)cn23)c1,i,2.7
CC1CCN(C(=O)c2ccc3c(c2)C(=O)c2ccccc2-3)CC1,i,0.7
COC(=O)[C@]12CCCCC=C1N(Cc1cccc3ccccc13)C(=O)[C@H](CC(=O)N1CCN(C(=O)C3CC3)CC1)C2,i,-1.9
CC(C)(C)C(=O)c1c(N)[nH]c(C(=O)c2ccccc2)c1-c1ccc(F)cc1,i,2.4
CSc1nnc2sc3cc(C)ccc3n12,i,-2.2
COC(=O)C[C@@H]1C[C@H]2c3cc(NS(=O)(=O)c4ccccc4)ccc3O[C@H]2[C@@H](CO)O1,i,1.2
COc1cccc(S(=O)(=O)N(C)C[C@H]2OCc3cnnn3CCCC(=O)N([C@H](C)CO)C[C@@H]2C)c1,i,2.0
Cn1c(NCC2CCCCC2)nc2cc(-c3ccsc3)sc2c1=O,i,-2.3
Cc1ccc(-c2cnc(C(O)c3c(C)cccc3C)[nH]2)cc1 (stereo unspecified),i,2.6
C[C@H](CO)N1C[C@H](C)[C@@H](CN(C)Cc2ccc3c(c2)OCO3)OCc2cnnn2CCCC1=O,i,3.2
CCC(=O)N1CCC(C)(C(=O)NCc2ccc(F)cc2)C1 (stereo unspecified),i,0.5
O=C1NC[C@H](Cc2ccccc2)N(C[C@@H]2CCCN2C[C@H](Cc2ccc(O)cc2)N2C[C@H](Cc3ccccc3)N(CC3CCCCCC3)C(=O)C2=O)C1=O,i,-0.7
OC(c1ccccc1)(c1nc(-c2cc3ccccc3o2)cs1)C(F)(F)F (stereo unspecified),i,-0.1
COCCN1C(=O)COc2ccccc2C1C(=O)Nc1ccc2c(c1)OCCO2 (stereo unspecified),i,-1.5
CCCNC(=O)C1(C)CCCN(Cc2ccccc2C#N)C1 (stereo unspecified),i,2.7
O=c1[nH]cnc2c1ncn2C1OC(CO)CC1F (stereo unspecified),i,4.3
CC(C)(C)OC(=O)NCCCCCNC(=O)c1[nH]cnc1C(=O)Nc1cc(Br)ccc1F,.,-3.6
COc1ccc(Cn2cc(CN3CC(N4CCN(C5CCN(C)CC5)CC4)CS3(=O)=O)nn2)cc1 (stereo unspecified),i,3.1
COC(=O)[C@]12CCCCC=C1N(CCc1ccc(OC)c(OC)c1)C(=O)[C@H](CC(=O)NCc1ccc(OC)c(OC)c1)C2,i,-4.3
COc1ccc(CNC(=O)O[C@H]2CN(C(=O)OC(C)C)N(C(=O)OC(C)C)[C@@H]3CN(S(=O)(=O)c4ccc(C)cc4)C[C@]23O)cc1OC,i,0.3
O=C(Nc1ccc(F)c(Cl)c1)c1csc([C@@H]2C[C@H](O)[C@@H](CO)O2)n1,i,1.6
CC(=O)NCCNC(=O)C1(C)Cc2c(-c3ccc(NC(C)=O)cc3)ccnc2O1 (stereo unspecified),i,0.2
CCCCCCn1c(SCC(=O)NC2CCS(=O)(=O)C2)nc2ccccc2c1=O (stereo unspecified),i,-1.9

A portion of the library; count on the stated rates, not on these rows.
